# Bioassay records (PubChem)
# Rango release inh: inhibitors of RanGTP-induced Rango-importin beta complex dissociation; Biochemical FRET Rango-importin beta, RanGTP-induced dissociation; Potency, µM (highest dose often 46.1 µM), for inactives: at the highest dose activity change, negative = inhibition; 0.071% of 340,000 active; active means falling FRET ratio curve, often poorly fitted, with flat reads before Ran was added; inconclusive means other falling curves, or compound fluorescence or quenching; inactive means flat or rising ratio curve;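 further: potency means the concentration at half of the fitted maximal effect; % of control where 0% means no effect; nearly all actives have a fitted effect of over 45% in size; -100% = wells without RanGTP and RCC1; the record marks most hits as doubtful in a second field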
#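 Rango (0.1 uM)–importin beta (0.25 uM) complex; RanGTP-RCC1 trigger; 45 min RT; CFP/YFP FRET read.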
# GLA inh pH 4.5: blocks human alpha-galactosidase A at pH 4.5 | activity change, negative = inhibition, % at 105 µM | P06280 | AID 1467 | 230,000 tested, under 10 active | purified enzyme, 4-MU-alpha-Gal fluorescence, pH 4.5; inconclusive = small, poorly fitted or top-dose-only inhibition, or a rising curve; inactive = flat fitted curve, though single readings scatter; no compound was filed as active;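 further: 0% = full activity with enzyme and -100% = basal without enzyme; dose as in the result columns while the protocol names 77 µM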
# Rango-impB inh: prevents formation of the Rango-importin beta complex; Q14974; Rango CFP/YFP FRET sensor + importin beta, 45 min; Potency, µM (series often up to 92.2 µM), without a hit: at the highest dose inhibition of complex formation; 0.031% of 340,000 active; active = rising FRET ratio curve, often small or poorly fitted; inconclusive = mostly compound fluorescence or quenching in the first reads; inactive = flat curves in all reads;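 further: potency means the concentration at half of the fitted maximal effect; 0% = DMSO wells and 100% = buffer wells lacking importin beta; nearly all actives have a fitted effect of over 15% in size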
# Target sequence (Q14974 whole entry, looked up): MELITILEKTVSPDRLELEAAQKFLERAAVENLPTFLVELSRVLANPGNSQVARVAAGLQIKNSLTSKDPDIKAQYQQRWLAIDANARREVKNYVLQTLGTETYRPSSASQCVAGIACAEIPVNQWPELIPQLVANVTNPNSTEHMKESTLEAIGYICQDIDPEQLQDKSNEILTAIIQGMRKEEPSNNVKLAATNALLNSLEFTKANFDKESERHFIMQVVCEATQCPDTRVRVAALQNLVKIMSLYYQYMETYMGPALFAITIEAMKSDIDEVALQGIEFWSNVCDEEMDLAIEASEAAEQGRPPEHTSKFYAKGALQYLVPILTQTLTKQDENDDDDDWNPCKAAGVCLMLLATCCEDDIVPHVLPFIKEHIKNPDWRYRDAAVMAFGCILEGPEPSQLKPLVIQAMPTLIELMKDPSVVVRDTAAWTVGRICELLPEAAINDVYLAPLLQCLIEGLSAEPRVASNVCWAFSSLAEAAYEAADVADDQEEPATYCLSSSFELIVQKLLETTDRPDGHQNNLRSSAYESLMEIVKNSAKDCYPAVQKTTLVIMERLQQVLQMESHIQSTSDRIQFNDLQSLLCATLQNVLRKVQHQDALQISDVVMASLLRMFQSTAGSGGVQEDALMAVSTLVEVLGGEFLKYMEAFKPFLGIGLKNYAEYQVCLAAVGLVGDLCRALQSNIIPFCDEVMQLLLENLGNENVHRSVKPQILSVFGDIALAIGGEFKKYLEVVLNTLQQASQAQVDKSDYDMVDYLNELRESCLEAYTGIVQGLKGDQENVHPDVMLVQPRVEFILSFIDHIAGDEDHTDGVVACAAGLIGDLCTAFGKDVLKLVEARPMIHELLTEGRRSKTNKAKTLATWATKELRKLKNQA
#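 FRET biosensor Rango (snurportin 1 IBB between N-terminal EYFP and C-terminal Cerulean), 50 nM in PBS/1 mM DTT/0.02% Tween-20/0.1% BSA, preincubated 5 min RT with compound; 0.125 microM importin beta added, 45 min RT, CFP/YFP FRET ratio read.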
# miR-21 reporter: miR-21 reporter, rising signal | 340,000 tested, under 10 active | Potency, µM (top dose mostly 38.3 µM), for inactives: top-dose reporter change, positive = more light | HeLa miR-21 FLuc reporter, luciferase, 48 h; active = well fitted rising curve with a large enough effect; inconclusive = small, poorly fitted or top-dose-only effect; inactive = no such curve, though single readings can be large or run the other way;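 further: % of control where 0% means no effect; miR-21 action dims this reporter so a rising signal means less miR-21 action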
#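 HeLa cells endogenously expressing miR-21, stably carrying CMV-driven firefly luciferase with a downstream miR-21 binding site, 2000 cells/well. Titrations up to approximately 40 uM, 48 hours; luciferase luminescence read.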
# An asterisk follows results filed as active; ? = inconclusive; nt = not tested or not shown.
SMILES,Rango release inh,GLA inh pH 4.5,Rango-impB inh,miR-21 reporter
O=C1c2cccc3cccc(c23)C(=O)N1CCCSc1ncn[nH]1,2.9%,3.0,-2.4%,-20.1%
CCN=C1SC(CC(=O)Nc2ccc(C)cc2)C(=O)N1CC (stereo unspecified),8.8%,7.2,6.2%,-0.8%
Cc1cc(NC(=O)CN2C(=O)NC(CCc3ccccc3)C2=O)no1 (stereo unspecified),-4.5%,-4.6,-3.1%,-5.1%
CC(=O)Nc1ccc(NC(=O)c2cc[n+]([O-])cc2)cc1,20.8%,nt,0.6%,-1.0%
CN(C(=O)c1cccnc1)c1nnc(-c2cnccn2)s1,42.3%,-1.0,5.4%,-8.7%
CC1Cc2cc(/C(O)=C3/C(=O)C(=O)N(CCN4CCOCC4)C3c3ccc(N(C)C)cc3)ccc2O1 (stereo unspecified),?,nt,?,-2.7%
CN(CC(=O)Nc1ccccc1C(F)(F)F)C(=O)C1CC1,6.5%,nt,-3.7%,nt
Cc1ccsc1-c1ccnc(-n2cccc2)n1,-10.6%,8.9,-2.0%,-8.4%
N/C(=N\OC(=O)c1cccc2ccccc12)c1ccc(Br)cc1,0.8%,1.7,-6.8%,-5.8%
Cc1ccc(S(=O)(=O)N2CCN(C(=O)CSc3ccc(F)cc3)CC2)cc1,19.7%,nt,0.9%,0.3%

# Reformatted with values under each structure: 2 of the compounds above.
# Results follow in this order: Rango release inh	GLA inh pH 4.5	Rango-impB inh	miR-21 reporter
CC(=O)Nc1ccc(NC(=O)c2cc[n+]([O-])cc2)cc1
    20.8%	nt	0.6%	-1.0%
CN(C(=O)c1cccnc1)c1nnc(-c2cnccn2)s1
    42.3%	-1.0	5.4%	-8.7%

# More results follow:
SMILES,Rango release inh,GLA inh pH 4.5,Rango-impB inh,miR-21 reporter
CCN(Cc1nc2cc(Cl)ccc2c(=O)[nH]1)C(=O)COc1ccccc1Cc1ccccc1,8.1%,nt,2.8%,nt
O=C(Nc1ccc(S(=O)(=O)N2CCCc3ccccc32)cc1)C1CCCO1 (stereo unspecified),-5.3%,0.3,1.7%,-5.2%
O=C(NNc1ccc(F)cc1F)c1c(F)cccc1Cl,13.9%,-6.5,0.0%,-1.5%
CCN=C1SC(C(=O)Nc2cc(Cl)cc(Cl)c2)CC(=O)N1CC (stereo unspecified),3.5%,3.6,1.7%,-1.2%
COC(=O)c1ccc(CSc2nnc(N)s2)o1,17.6%,-9.1,1.1%,0.1%
Cc1ccc(NC(=O)c2ncn(CCCNCc3ccc4c(c3)OCO4)n2)cc1C,?,nt,2.2%,nt
COc1cc2cc(CN(CCc3cccc(C)c3)C(=S)NCCCN3CCOCC3)c(=O)[nH]c2cc1OC,-10.2%,0.3,-3.3%,-3.5%
Cc1cc(C)nc(NC(=NCCc2c[nH]c3ccccc23)NC(=O)Nc2cccc([N+](=O)[O-])c2)n1,-28.4%,-5.6,-0.1%,-0.2%
CCc1nnc(NC(=O)CSc2nc(C3CCCCC3)nc3ccccc23)s1,0.3%,4.4,6.7%,-0.5%
O=[N+]([O-])c1ccc(-n2nncc2-c2ccccc2)cc1,-2.8%,nt,-1.6%,2.3%
CCOc1cc(C(=O)OCC(=O)N(C)c2ccccc2)cc(OCC)c1OCC,14.8%,nt,0.4%,-1.8%
COc1ccccc1CCNCc1ccc(OC)c(OCc2ccccc2)c1,-7.7%,-2.9,-0.6%,20.3%
O=C(O)c1cc(N=Nc2c(O)[nH]c3ccc([N+](=O)[O-])cc23)ccc1Cl,9.0%,nt,0.9%,-5.4%
COc1cccc(/C=N/NC(=O)C(=O)NCc2cccnc2)c1,7.3%,-9.6,-4.8%,-0.4%
Cc1cccc(C(=O)N2CCCCCC2)c1,-4.4%,-6.2,-0.4%,-2.4%
c1ccc(N2CCN(Cc3ccc4c(c3)OCO4)CC2)nc1,-4.8%,nt,-3.6%,nt
Cc1cccc(NC(=O)CN(C)S(=O)(=O)c2ccc3c(c2)n(C)c(=O)c(=O)n3C)c1C,16.1%,nt,3.5%,0.4%
Cc1cc(C(=O)NC2CC(C)(C)Cc3c2cnn3-c2ccccc2C)c(C)o1 (stereo unspecified),-1.2%,nt,7.3%,11.6%
Cc1nc2ccccc2nc1N1CCCCC1,34.3%,4.0,-1.0%,-8.2%
CC(C)c1ccc(NC(=O)[C@@H]2CCC(=O)N2C2OC(=O)c3ccccc32)cc1 (stereo partly specified),-5.2%,nt,2.6%,-56.2%
COC(=O)c1ccccc1NC(=O)c1cc2ncc(Br)cn2n1,14.6%,3.2,3.5%,-3.9%
COc1ccccc1NC(=O)c1ccc(COc2ccccc2OC)cc1,-17.8%,nt,?,nt
COC(=O)c1cc(Br)c(=O)n(CCc2ccccc2)c1,1.2%,0.4,1.9%,-7.4%
CCn1c(CNC(=O)c2cccc(C)c2)nnc1SCC(=O)NC1CCCCC1C (stereo unspecified),-6.6%,2.3,-2.9%,-6.3%
CC(=O)N1CCN(C(=O)c2cc(=O)c3ccccc3o2)CC1,14.7%,nt,-4.4%,-18.7%
CCC(C)N(C(=O)c1csnn1)C(C(=O)NC(C)(C)C)c1ccccc1 (stereo unspecified),-21.7%,1.7,-1.6%,-9.4%
COc1ccc(OCc2cc(C(=O)NC3Cc4ccccc4C3)no2)c(Cl)c1,1.6%,nt,-2.7%,-1.7%
CN1C(=O)C(C)(C)c2cc(S(=O)(=O)N3CCCC(C(=O)NCc4ccc(F)cc4)C3)ccc21 (stereo unspecified),-11.4%,nt,2.3%,8.8%
Cc1cc(Cl)ccc1OC(C)C(=O)NC(C)C1CCCO1 (stereo unspecified),-2.3%,nt,0.1%,-0.8%
Cc1cccn2c(=O)c3cc(C(=O)NC(C)c4ccccc4)c(=N)n(CCCn4ccnc4)c3nc12 (stereo unspecified),?,-10.5,?,19.6%
CCNC(=O)CN(c1ccccc1)S(=O)(=O)c1ccc(Cl)cc1,-24.2%,1.9,1.7%,-1.6%
CCS(=O)(=O)N1Cc2ccccc2CC1C(=O)Nc1ccc(OC)c(OC)c1 (stereo unspecified),10.2%,nt,-1.3%,-9.7%
CCCCN1C(=O)C2ON(c3ccccc3C)C(c3ccco3)C2C1=O (stereo unspecified),-1.9%,-8.6,4.9%,4.2%
CC(C)Cn1c(=S)[nH]c2cc(Cl)ccc21,11.6%,-2.2,0.8%,8.9%
COc1ccc(C2=NOC(C(=O)Nc3ccc4c(c3)OCCO4)C2)cc1OC (stereo unspecified),1.0%,nt,3.5%,-10.2%
O/N=C(/CCc1ccccc1)C1(O)CCCCC1,-3.2%,-2.5,-0.7%,-2.6%
CCOC(=O)C(C)c1nc2ccccc2[nH]c1=O (stereo unspecified),-18.6%,26.4,-2.2%,1.4%
COC(=O)c1cc(=O)n(CCc2ccccc2)c(=Nc2ccc(F)cc2)s1,0.4%,-9.6,-1.7%,10.0%
c1ccn2cc(-c3ccc4c(c3)OCCO4)nc2c1,-18.7%,-3.5,0.5%,20.5%
COc1ccccc1-c1nnc(NC(=O)c2ccccc2F)o1,-4.7%,1.4,7.0%,-13.0%
COc1cc(NC(=O)C2CC(c3c(F)cccc3Cl)=NO2)c(OC)cc1Cl (stereo unspecified),10.6%,nt,-0.3%,0.8%
COc1ccc(C/C(C)=N/NC(=S)Nc2ccccc2)cc1,?,3.4,-1.4%,-49.0%
CC[n+]1oc(-c2ccccc2)cc1C,24.7%,-5.2,-0.1%,5.7%
C=CCn1c(SCC(=O)Nc2ccc(Cl)cn2)nnc1C1CC1,-0.4%,nt,6.2%,-34.9%
CO/N=C/c1ccc(N2CCN(C(=O)c3cccc(Cl)c3)CC2)c([N+](=O)[O-])c1,18.7%,-20.4,1.0%,-4.1%
COc1ccccc1N(C(=O)Cn1nnc2ccccc21)C(C(=O)NCc1ccco1)c1ccc(C)o1 (stereo unspecified),14.3%,2.5,-5.8%,-5.3%
CC1(C)CC(NC(=O)Cc2ccc(Cl)cc2)CC(C)(C)N1,-2.1%,nt,-3.5%,-0.9%
NCCCC[C@H]1CNC(=S)N1CC1(c2ccccc2)CC1,18.4%,0.4,0.7%,-0.2%
Cc1cc(C(=O)NC2CCCc3ccccc32)no1 (stereo unspecified),-11.7%,5.5,-8.0%,-8.9%
COc1ccc(NC(=O)C2(c3ccccc3)CCCC2)cc1,0.2%,6.1,3.6%,-1.1%
# (next part)
SMILES,Rango release inh,GLA inh pH 4.5,Rango-impB inh,miR-21 reporter
Nc1ccc(-c2ccc(N)cc2C(F)(F)F)c(C(F)(F)F)c1,5.5%,-6.3,-6.7%,4.3%
CC(C)OC(=O)c1nnn(-c2nonc2N)c1CN1CCCCCC1,8.2%,-8.1,0.5%,-0.4%
O=C(CN1C2=NCCCN2c2ccccc21)c1cccs1,11.3%,6.7,-0.9%,-7.3%
COc1ccc(-c2nc3c4ccccc4ccn3c2CN2CCCCC2)cc1OC,2.5%,-5.8,3.9%,-13.8%
COc1cccc2cc(C(=O)N3CCN(C(=O)c4ccccc4)CC3)c(=O)oc12,1.3%,-1.5,-7.7%,-9.4%
Cc1cc(CSc2ccccc2)ccc1NC(=O)c1ccc(Br)cc1,1.1%,4.3,0.4%,0.6%
O=C(COc1ccc2ccccc2c1)Nc1nc2ccccc2[nH]1,-4.8%,0.3,-0.5%,6.5%
Cc1nnc(SCC(=O)Nc2ccc(Br)cc2)n(N)c1=O,0.5%,nt,-0.9%,4.6%
O=C(NN=C(Cc1ccccc1)Cc1ccccc1)c1ccccc1F,1.5%,-1.4,-3.6%,-44.4%
COc1ccc(-n2nc(C(=O)NCC(=O)O)c3ccccc3c2=O)cc1,16.7%,nt,2.4%,-1.5%
Cc1oc(/C=N/NC(=O)CN(c2ccccc2Cl)S(C)(=O)=O)cc1Br,-3.4%,0.4,-2.4%,-3.5%
CCCOc1cccc(-c2cc(C(=O)N/N=C/c3ccccn3)c3ccccc3n2)c1,-5.5%,nt,1.2%,12.9%
CCOC(=O)C1CCN(C(=O)Cc2ccccc2OC)CC1,-12.0%,0.0,3.0%,-0.6%
CN(C)N1C(N)=C(C#N)C(c2cccc3ccccc23)C2=C1CC(c1ccccc1)CC2=O (stereo unspecified),0.4%,1.4,?,24.1%
O=C(ON=C1CCN(c2ccc([N+](=O)[O-])cc2)CC1)c1ccccc1,-17.4%,-5.1,?,-10.1%
OCC[C@H]1C[C@@H](O)[C@H](O)[C@]2(CCCCO2)O1,22.2%,6.3,3.4%,1.4%
CCOC(=O)c1cc(C(=O)n2cc(Cl)cn2)nn1C,5.5%,2.0,0.2%,0.9%
COc1cccc(OCCOc2cccc(/C=N/n3cnnc3)c2)c1,-8.2%,1.6,-1.0%,-33.3%
O=C(COC(=O)/C=C/c1ccc(C(F)(F)F)cc1)NCc1ccco1,-22.3%,nt,5.9%,-2.5%
CCc1c(C)nc(N2CCN(c3ccc(F)cc3)CC2)[nH]c1=O,?,nt,2.1%,-3.5%
COc1cc2c(cc1NC(=O)CN(C)Cc1ccc(OC)c(OC)c1)oc1ccccc12,-5.0%,-3.2,-0.3%,26.2%
Cc1nc(SCC(=O)N(CC(C)C)C2CCS(=O)(=O)C2)c(C#N)c(C)c1C (stereo unspecified),16.5%,nt,-0.4%,nt
Cc1ccc(NC(=O)CSc2nnc(CCNC(=O)OC(C)(C)C)o2)c(C)c1,15.0%,6.8,3.7%,6.4%
CCOc1ccc(N(CC(=O)N/N=C/c2ccc(OC(C)C)cc2)S(C)(=O)=O)cc1,-5.0%,-25.9,-1.5%,-5.6%
Cc1ccc(N2C(=O)C3C(C(=O)c4ccccc4)=NN(c4ccccc4)C3C2=O)cc1 (stereo unspecified),?,0.1,?,3.6%
CN(C(=O)c1ccco1)c1nc2c(s1)CCCC2,-7.4%,5.6,-2.6%,-21.2%
CCOC(=O)Nc1c(C(=O)OC)[nH]c2cccc(OC)c12,1.5%,-4.7,-2.2%,-7.4%
Cc1[nH]nc2c1-c1nc3ccccc3nc1C(C)(C)C2,-14.4%,4.6,0.8%,28.4%
Cc1ccccc1NC(=O)c1ccc2c(c1)OCCO2,-2.4%,-2.3,?,-49.0%
CCOC(=O)C[n+]1ccc2c([nH]c3ccccc32)c1C,?,nt,?,2.1%
CCC(C)c1ccccc1NC(=O)COc1ccc(-c2nnco2)cc1 (stereo unspecified),-2.1%,nt,-1.4%,nt
NC(=O)COc1ccc(C(=O)NCC2(N3CCOCC3)CCCCC2)cc1,-13.4%,nt,4.2%,nt
COc1ccccc1-c1ccc(/C=C2/C=C(C)OC2=O)o1,?,15.2,?,-9.0%

# This is a subset; the hit share may differ from the screen's.
